High-throughput results (PubChem BioAssay)
KCNH2 3.1 inh – KCNH2 3.1 (human) potassium channel inhibition; U2OS KCNH2 3.1, thallium flux FluxOr; active compounds read low; activity change, % (tested at about 1.8 µM); 340,000 compounds, 0.95% hits; AID 720553;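 active = maximum activity change below -70%; inconclusive = maximum activity change from -70% to -50%; inactive = maximum activity change above -50%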;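 also: thallium influx rate constant from kinetic fluorescence after stimulation buffer; % is scaled to controls: 0 for no effect and ±100 for the full control effect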
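Virally transduced U2OS (3.1 isoform, 4 h infection in dark at RT) → overnight 37 C → FluxOr + Red40 in HBSS/HEPES, 45 min → stimulation buffer, 2 min kinetic read → rate constant vs DMSO controls.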
MBNL1 CUG block – inhibitors of human MBNL1 binding to CUG repeat RNA | Q9NR56 | TR-FRET MBNL1-His/biotin-(CUG)12 binding, 665/545 ratio | Potency, µM (top dose mostly 57.5 µM), without a hit: at the highest dose activity change, negative = inhibition, most hits filed as inhibitors | 280,000 compounds, 0.036% hits | AID 2675; active = well fitted inhibition curve with a large enough effect in the signal ratio, with a control signal flat, not every such curve was filed as active; inconclusive = small, poorly fitted or top-dose-only effect, or effect the other way, or a change in a side signal; inactive = no such curve, though single readings can be large or run the other way; the % refers to the signal ratio; also: potency is read from the fitted curve at half-maximal effect; % is scaled to controls: 0 for no effect and ±100 for the full control effect
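His-tagged MBNL1 binding to biotinylated (CUG)12 RNA was measured by TR-FRET using terbium anti-His antibody (0.055 ng/ul final) and streptavidin-XL665 (5 nM final). Compounds were titrated 92 nM to 58 uM; 60 min at room temperature.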
PKM2 activator – activators of human pyruvate kinase M2 | AID 1631 | Potency, µM (highest dose often 57.5 µM), for inactives: at the top dose activation, hits mostly activators | 260,000 compounds, 0.34% hits | purified PKM2, Kinase-Glo ATP luminescence, activation; response scale: 0% is enzyme alone, no compound | P14618; also: potency is read from the fitted curve at half-maximal effect; % is scaled to controls: 0 for no effect and ±100 for the full control effect; nearly all actives have a fitted effect of over 55% in size
Target sequence (P14618 whole entry, looked up): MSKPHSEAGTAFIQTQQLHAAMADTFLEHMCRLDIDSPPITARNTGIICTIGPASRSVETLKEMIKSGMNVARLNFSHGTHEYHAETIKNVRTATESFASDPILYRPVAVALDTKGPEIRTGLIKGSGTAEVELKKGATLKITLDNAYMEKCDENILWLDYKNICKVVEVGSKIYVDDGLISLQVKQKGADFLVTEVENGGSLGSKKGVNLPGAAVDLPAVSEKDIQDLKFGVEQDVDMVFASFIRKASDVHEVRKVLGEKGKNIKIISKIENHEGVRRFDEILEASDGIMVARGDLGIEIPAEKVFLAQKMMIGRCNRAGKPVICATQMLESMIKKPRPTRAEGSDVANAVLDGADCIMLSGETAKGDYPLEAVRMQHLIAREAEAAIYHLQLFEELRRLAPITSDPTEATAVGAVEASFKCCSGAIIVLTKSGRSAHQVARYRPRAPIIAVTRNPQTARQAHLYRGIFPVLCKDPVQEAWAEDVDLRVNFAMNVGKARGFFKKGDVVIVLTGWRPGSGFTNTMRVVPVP
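Kinase-Glo luminescence reports ATP generated from ADP (0.1 mM) and PEP (0.5 mM) by purified hPK-M2 after 1 h at room temperature, pH 7.2 imidazole buffer; intermediate enzyme activity allows detecting inhibitors and activators.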
Mito fusion yeast – mitochondrial division inhibition or fusion activation; 320,000 compounds, 0.23% hits; Potency, µM (highest dose often 46.1 µM), for the others: at the top dose growth rescue (activation), usual class: activators; S. cerevisiae fusion-defective mutant growth rescue, CellTiterGlo 48 h;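 also: potency is read from the fitted curve at half-maximal effect; % of control where 0% means no effect; nearly all actives have a fitted effect of over 45% in size; temperature-sensitive fusion mutants such as fzo1-1 at 37 °C on non-fermentable ethanol glycerol medium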
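Yeast fusion mutant, YPEG (non-fermentable carbon), compound, 48 h at 37C non-permissive; CellTiterGlo added, 10 min RT, luminescence read. Rescued growth = division inhibition.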
ELG1 repair inh – inhibitors of ELG1-dependent DNA repair in HEK293T cells | 330,000 compounds, 2.3% hits | HEK293T ELG1-luciferase reporter, luminescence, 16 h; DNA damage induced by 5-fluorouridine | Potency, µM (doses to about 46.1 µM), for inactives: top-dose activity change, negative = inhibition, usual class: inhibitors; also: potency is read from the fitted curve at half-maximal effect; % is scaled to controls: 0 for no effect and ±100 for the full control effect; nearly all actives have a fitted effect of over 55% in size
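Reporter activity after DNA damage by 5-fluorouridine is monitored. Compound-treated cells incubate 16 hr at 37 °C, then ONE-Glo is added for 30 min before luminescence reading.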
Menin-MLL TR inh – inhibitors of human menin-MLL interaction, mutant MLL peptide | O00255 | Menin + Texas Red MLL mutant peptide, fluorescence polarization | Potency, µM (top dose mostly 61.6 µM), without a hit: at the top dose FP activity change, negative = inhibition, actives largely listed as inhibitors | 270,000 compounds, 0.23% hits | AID 1768; active = well fitted inhibition curve with a large enough effect in the polarisation, with a control signal flat, not every such curve was filed as active; inconclusive = small, poorly fitted or top-dose-only effect, or effect the other way, or a change in a side signal; inactive = no such curve, though single readings can be large or run the other way; the % refers to the polarisation; also: potency is read from the fitted curve at half-maximal effect; % of control where 0% means no effect; many of its hits are not listed in these tables
Starred values were filed as active, the others as inactive; ? = inconclusive; . = not tested or not shown; & = joins results of further samples; ! = not confirmed by another sample; [ ] = remark or other dose. Unless noted, calls follow the shape of the dose curve; as a rule, active = well fitted curve in the direction sought with a large enough effect; inconclusive = small, poorly fitted or top-dose-only effect, or another doubt; inactive = no such curve, though single readings can be large; an effect the other way counts as inactive or inconclusive. An excerpt; count on the stated rates, not on these rows.

SMILES	KCNH2 3.1 inh	MBNL1 CUG block	PKM2 activator	Mito fusion yeast	ELG1 repair inh	Menin-MLL TR inh
CCCOc1ccc(-c2cn3ccccc3n2)cc1	-7	-1%	-43%	-5%	?	0%
CN(C)c1ccnc2sc(C(N)=O)c(N)c12	8	?	3%	-2%	0.82µM*	-6%
CN1/C(=C\C=[N+](C)c2ccccc2)C(C)(C)c2ccccc21	-11	14%	-2%	1%	?	.
CCN1/C(=C/C=C/c2oc3ccc4ccccc4c3[n+]2CC)Oc2ccc3ccccc3c21	-31	10%	-8%	-25%	-10%	?
COc1cc(C2C(C#N)=C(N)Oc3cc4c(cc32)OCO4)cc(OC)c1OC (stereo not given)	31	14%	0%	-4%	?	-3%
CCCCC1=NC2(CCCC2)C(=O)N1Cc1ccc(-c2ccccc2-c2nn[nH]n2)cc1	.	-8%	3%	-2%	.	3%&-7%
CC(=O)Nc1ccc(C(=O)N2CCCC2)cc1	1	-3%	4%	-1%	23%	3%
Cc1nnc(SCC2=C(C(=O)O)N3C(=O)C(NC(=O)Cn4cnnn4)[C@@H]3SC2)s1 (stereo not given in full)	.	.	.	.	.	1%
CC1=C(C(=O)O)N2C(=O)[C@@H](NC(=O)C(N)c3ccccc3)[C@H]2SC1 (stereo not given in full)	.	.	.	8%	.	-2%
Cc1nnc(SCC2=C(C(=O)O)N3C(=O)C(NC(=O)Cn4cnnn4)C3SC2)s1 (stereo not given)	-4	2%	-4%	-1%	16%	-1%
CN1CCc2c(c3ccccc3n2Cc2ccccc2)C1	-77*!	5%	4%	-6%	-2%	2%[11.7 µM]
CC[n+]1c(/C=C/N(C)c2ccccc2)n(-c2ccccc2)c2ccc(-c3nc4ccccc4s3)cc21	6	-10%	8%	-24%	4.1µM*	?
Cc1ccn2cc(-c3cccc([N+](=O)[O-])c3)nc2c1	11	?	-40%	-3%	?	-4%
c1ccc(-c2nc3ccccc3[nH]2)cc1	0	-3%	-23%	-13%	?	2%
COc1ccc(-c2nc(-c3ccccc3)no2)c(OC)c1	-14	0%	-20%	12%	?	40%[activator]
O=C1CC[C@@H](C(=O)O)N1	13	.	.	0%	14%	-6%
CCCCCCCCCCCCCCCC[n+]1cccc2ccccc21	-49	9%	2%	-17%	13µM*	?
NC1C2CN(c3nc4c(cc3F)c(=O)c(C(=O)O)cn4-c3ccc(F)cc3F)CC12 (stereo not given)	5	12%	-1%	3%	-25%	4%
CC(=O)c1ccc([N+](=O)[O-])cc1	2	.	.	-13%	21%	.
CCOc1ccc(NC(N)=O)cc1	9	7%	-2%	-1%	10%	5%
CC(=O)c1cccc([N+](=O)[O-])c1	9	.	.	-10%	19%	.
CNCC(O)c1cccc(O)c1 (stereo not given)	.	.	.	.	.	10%

14 neighbouring compounds out of the list so far:
SMILES	KCNH2 3.1 inh	MBNL1 CUG block	PKM2 activator	Mito fusion yeast	ELG1 repair inh	Menin-MLL TR inh
CC1=C(C(=O)O)N2C(=O)[C@@H](NC(=O)C(N)c3ccccc3)[C@H]2SC1 (stereo not given in full)	.	.	.	8%	.	-2%
Cc1nnc(SCC2=C(C(=O)O)N3C(=O)C(NC(=O)Cn4cnnn4)C3SC2)s1 (stereo not given)	-4	2%	-4%	-1%	16%	-1%
CN1CCc2c(c3ccccc3n2Cc2ccccc2)C1	-77*!	5%	4%	-6%	-2%	2%[11.7 µM]
CC[n+]1c(/C=C/N(C)c2ccccc2)n(-c2ccccc2)c2ccc(-c3nc4ccccc4s3)cc21	6	-10%	8%	-24%	4.1µM*	?
Cc1ccn2cc(-c3cccc([N+](=O)[O-])c3)nc2c1	11	?	-40%	-3%	?	-4%
c1ccc(-c2nc3ccccc3[nH]2)cc1	0	-3%	-23%	-13%	?	2%
COc1ccc(-c2nc(-c3ccccc3)no2)c(OC)c1	-14	0%	-20%	12%	?	40%[activator]
O=C1CC[C@@H](C(=O)O)N1	13	.	.	0%	14%	-6%
CCCCCCCCCCCCCCCC[n+]1cccc2ccccc21	-49	9%	2%	-17%	13µM*	?
NC1C2CN(c3nc4c(cc3F)c(=O)c(C(=O)O)cn4-c3ccc(F)cc3F)CC12 (stereo not given)	5	12%	-1%	3%	-25%	4%
CC(=O)c1ccc([N+](=O)[O-])cc1	2	.	.	-13%	21%	.
CCOc1ccc(NC(N)=O)cc1	9	7%	-2%	-1%	10%	5%
CC(=O)c1cccc([N+](=O)[O-])c1	9	.	.	-10%	19%	.
CNCC(O)c1cccc(O)c1 (stereo not given)	.	.	.	.	.	10%
